FGF22 binding – shifts melting point of recombinant human FGF22. Q9HCT0. recombinant FGF22 thermal shift, SYPRO orange fluorescence; percent of sucrose octasulfate shift, DMSO zero. calls only at 9.99 µM. actives 1.5% (n = 340,000);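 active = melting point raised past a set limit in the mean and every replicate; inconclusive = no clear call; three in four hits are not shown here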
Target sequence (Q9HCT0 whole entry, looked up): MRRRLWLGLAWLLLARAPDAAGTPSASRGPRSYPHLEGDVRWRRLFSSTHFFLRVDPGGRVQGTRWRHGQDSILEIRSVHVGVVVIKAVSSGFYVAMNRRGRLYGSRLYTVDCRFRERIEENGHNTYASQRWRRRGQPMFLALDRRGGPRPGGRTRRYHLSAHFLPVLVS
RanGTP-Imp inh – inhibitors of RanGTP-importin-beta interaction, primary screen, biochemical, FRET, CFP-Ran, YFP-importin-beta, homogeneous; cell-free CFP-Ran/YFP-importin-beta FRET ratio; inhibition, % (no concentration beside the values); actives 1.1% (n = 300,000); AID 2216;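 active = most replicates above 15%; inconclusive = exactly half above 15%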;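 also: 0% = DMSO wells and 100% = Ran loaded with GDP instead of GTP; wells of about 40 µL received 100 nL stock; the first replicate is given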
ALR H2O2 inh – blocks human ALR sulfhydryl oxidase activity; AID 485317; inhibition, % (concentration not given with the values); P55789; actives 3.8% (n = 290,000); purified ALR, DTT oxidation, H2O2 HRP-luminol luminescence;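 active = mean and each replicate at 75% or more; inconclusive = only one of the two met; inactive = neither met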;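 also: stock transfer was 7.5 nL into about 7.5 µL; 0% = neutral wells and 100% = wells with inactivated enzyme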
Target sequence (P55789 whole entry, looked up): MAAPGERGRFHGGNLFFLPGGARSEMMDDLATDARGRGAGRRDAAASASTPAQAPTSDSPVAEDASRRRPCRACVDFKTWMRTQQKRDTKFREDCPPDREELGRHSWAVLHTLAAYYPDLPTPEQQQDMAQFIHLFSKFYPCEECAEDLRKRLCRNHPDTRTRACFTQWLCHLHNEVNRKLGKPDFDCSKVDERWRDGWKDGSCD
AF4-AF9 inh – MLL-AF4/AF9 protein interaction inhibition; P42568; AlphaScreen, biotin-AF4 peptide binding to FLAG-AF9; inhibition, % at 10 µM; actives 0.47% (n = 350,000); AID 651704;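 active = every replicate reaching a set inhibition limit, whatever the replicate mean, cut at about 25% in these data; inconclusive = mean inhibition reaches that limit but some replicates miss it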;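 also: 0% = plate neutral control median and 100% = total signal loss; the record names both 10 and 1 µM as test concentration; the first replicate is given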
Target sequence (P42568 whole entry, looked up): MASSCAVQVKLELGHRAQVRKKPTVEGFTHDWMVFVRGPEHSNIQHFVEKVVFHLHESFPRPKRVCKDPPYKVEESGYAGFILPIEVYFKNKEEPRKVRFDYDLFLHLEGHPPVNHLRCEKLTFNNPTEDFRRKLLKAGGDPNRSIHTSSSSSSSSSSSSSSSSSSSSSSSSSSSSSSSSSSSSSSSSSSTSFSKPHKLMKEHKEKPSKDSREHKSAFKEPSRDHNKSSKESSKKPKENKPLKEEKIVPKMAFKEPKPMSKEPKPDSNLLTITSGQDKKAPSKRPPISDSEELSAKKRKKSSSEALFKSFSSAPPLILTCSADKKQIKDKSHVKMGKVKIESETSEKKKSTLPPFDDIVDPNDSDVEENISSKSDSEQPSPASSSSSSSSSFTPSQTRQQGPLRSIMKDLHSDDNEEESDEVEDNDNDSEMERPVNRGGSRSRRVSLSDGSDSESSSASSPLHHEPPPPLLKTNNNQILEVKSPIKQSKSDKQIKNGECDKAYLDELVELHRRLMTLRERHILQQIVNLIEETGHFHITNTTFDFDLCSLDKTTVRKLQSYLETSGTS
T cruzi inh – T. cruzi replication inhibition | T. cruzi beta-gal in NIH3T3, luminescence, 90 h | inhibition, % (test concentration not listed) | actives 1.4% (n = 300,000);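 active = mean inhibition across valid replicates above about 55%, limit read from the data; inconclusive = mean below that limit but half or more replicates reach it; inactive = mean below it, under half of replicates reach it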;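 also: signal also drops with host cell toxicity which is not excluded here; 0% = plate median of DMSO wells and 100% = zero luminescence signal; higher percent means less beta-gal luminescence so fewer parasites; stock transfer was 50 nL into about 50 µL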
Beta apoptosis – beta cell apoptosis inhibition | INS-1E cytokine-induced death, ATP luminescence, 48 h; percent of positive-control rescue, neutral wells zero | protection from apoptosis, % (test concentration not listed) | actives 0.8% (n = 300,000) | AID 435005;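 active = all replicates at 75% or more, or half of them and the mean; inconclusive = half reach 75% but not the mean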;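 also: 0% = cytokine-treated negative control wells and 100% = positive control rescue; higher means more ATP so stronger rescue from cytokine killing; wells of about 40 µL received 100 nL stock; the first replicate is given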
rRNA inh HTS – inhibitors of bacterial rRNA selective over humanized ribosomes | actives 1.6% (n = 350,000) | E. coli WT GFP vs humanized-ribosome RFP mutants, fluorescence, 24 h; active compounds read low; DMSO median 0, no signal -100 | GFP signal change (wild-type ribosome), % (no concentration beside the values) | AID 720706;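 active = significant combined selectivity score with lowered wild-type GFP, culture density cut under 30%, mutant RFP and density less affected; inactive = any of these conditions unmet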; also: one replicate is shown; some compounds called inactive have numbers as strong as hits
Calb FLC – C. albicans growth modulation with fluconazole; C. albicans CaCi-2 (fluconazole-resistant clinical isolate) + fluconazole, Alamar Blue growth, 48 h; growth inhibition, % (concentration not given with the values); actives 0.57% (n = 300,000); AID 1979;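 active = most replicates above 75%; inconclusive = exactly half above 75%; inactive = most below 75%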;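 also: all wells also contain fluconazole at 8 µg/ml as a sub-toxic cotreatment; 0% = median of DMSO wells and 100% = median of geldanamycin control wells; wells of about 8 µL received 7.5 nL stock; the first replicate is given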
rRNA inh HTS OD600 – second read-out of rRNA inh HTS, no call of its own (marks repeat the call); OD600 change, %; measured here: OD600 growth;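 optical density of the mix in the first replicate; 0 = DMSO median and -100 = no signal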
rRNA inh HTS RFP – further read-out of rRNA inh HTS, marked with its call; RFP signal change, %; measured here: RFP humanized mutant strains;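 first replicate; 0 = DMSO median and -100 = no signal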
Numbers without * were called inactive; i = inactive; ? = inconclusive; . = not tested or not shown. These rows are one share of the data. The share of hits here may be higher or lower than overall.

SMILES | FGF22 binding | RanGTP-Imp inh | ALR H2O2 inh | AF4-AF9 inh | T cruzi inh | Beta apoptosis | rRNA inh HTS | rRNA inh HTS OD600 | rRNA inh HTS RFP | Calb FLC
COc1ccc(/C=N\NC(=O)c2ccccc2Br)cc1COc1ccc(F)cc1 | i | 3.2 | -1 | 1.2 | -3 | 3 | 3 | 13 | 4.0 | -2
Cc1nc(C(=O)NCCC(C)C)sc1C1(C)CC(c2cccc([N+](=O)[O-])c2)=NO1 (stereo not given) | i | -3.0 | . | -0.4 | 34 | . | 0 | -14 | -5.5 | -2
Cc1cc(C(=O)NNC(=O)c2cccc([N+](=O)[O-])c2)n[nH]1 | i | . | -1 | -1.5 | . | 4 | -12 | -9 | -0.5 | .
CCOC(=O)N1CCC(NC(=O)c2ccc(CS(=O)(=O)c3ccccc3C)o2)CC1 | i | 0.8 | -3 | -7.4 | 0 | 5 | 0 | 1 | -7.1 | 1
CCOC(=O)c1cnc(-c2ccccc2)nc1N1CCOCC1 | i | -2.3 | 18 | -3.5 | 2 | -4 | 0 | -5 | -2.7 | 14
O=C(CCc1ccccc1)Nc1cc(C(F)(F)F)ccc1Cl | . | 6.8 | . | . | 23 | 7 | . | . | . | 5
O=C(CC1SC(=NCc2ccccc2)NC1=O)Nc1ccccc1 (stereo not given) | i | -4.7 | -8 | -4.3 | -10 | -7 | 6 | 6 | 6.9 | 26
CN(C)S(=O)(=O)n1ccnc1 | . | -1.3 | -1 | . | -2 | -4 | . | . | . | 1
CC(=O)c1ccc(OCC(O)CN2CCN(c3ccc(F)cc3)CC2)cc1 (stereo not given) | i | 7.0 | 98* | 5.9 | -5 | -5 | -7 | -5 | -2.1 | 0
COc1ccc(CNC(=O)C2CCCC2)cc1 | i | -1.1 | -1 | -1.8 | 7 | . | 4 | -5 | 2.0 | -2
O=C(O)c1ccc(/C=N/Nc2ccc(S(=O)(=O)N3CCCC3)cc2[N+](=O)[O-])cc1 | i | 4.0 | 0 | 2.0 | 6 | 0 | 6 | 5 | 2.0 | -9
CC(C)Cc1nc(S(=O)(=O)c2ccc(Cl)cc2)c(N2CCOCC2)o1 | . | 0.3 | 11 | . | -5 | -4 | . | . | . | .
O=C(Nc1ccc(C(=O)O)cc1)/C(=C\c1ccco1)NC(=O)c1ccccc1 | i | -2.7 | 11 | -1.1 | -10 | -8 | 64 | 4 | 9.3 | 19
CCc1cc(=O)oc2cc(OCC(=O)NCCN3CCOCC3)c(Cl)cc12 | i | -0.9 | 4 | -5.5 | -20 | . | -4 | 2 | -0.3 | 2
CC(C)OCCCNc1ncnc2c1[nH]c1ccc(F)cc12 | . | 4.0 | 2 | . | 22 | 104* | . | . | . | -2
COc1ccc(C2N(c3ccccn3)C(=O)C3CCCN32)c(OC)c1 (stereo not given) | . | -1.3 | -2 | . | -4 | -15 | . | . | . | 16
Cc1sc2nc(CSc3ncn[nH]3)[nH]c(=O)c2c1C | i | 2.1 | 4 | -2.8 | -8 | -2 | -3 | 4 | -1.3 | 6
CCOC(=O)Cn1nnnc1C(CC)N(Cc1cc2ccc(C)cc2[nH]c1=O)C1CCCC1 (stereo not given) | . | 2.8 | -22 | . | 1 | -11 | . | . | . | 16
COC(=O)C(Cc1cnc(Cl)s1)(C(=O)OC)c1ccc(C(F)(F)F)cc1[N+](=O)[O-] | . | -0.7 | -2 | . | -10 | 0 | . | . | . | 9
Cc1cccc(COCC(Cc2ccccc2)N2CCN(C(=O)c3cc(Cl)cc(Cl)c3)CCC2=O)c1 (stereo not given) | . | -3.1 | 68 | . | 30 | 1 | . | . | . | 6
Cc1cccc(NC(=S)N(C)C2CCCCC2)c1 | i | 0.8 | 0 | -1.1 | -4 | 1 | 4 | 2 | 0.7 | -3
Cc1cc(C)c(C(N)=O)c(Nc2ccc(F)cc2)n1 | i | 3.5 | -4 | -0.2 | 1 | -12 | 13 | 10 | 3.7 | -9
CC1CCN(C(=O)COC(=O)c2ccccc2NC(=O)c2ccco2)CC1 | i | -0.8 | -6 | 1.0 | 1 | -3 | -32* | 0.8* | -0.8* | 21
COc1cc(C(=O)N[C@H](C(=O)OCC(=O)NC2CCCCCC2)C(C)C)cc(OC)c1OC | i | . | . | 0.5 | . | -5 | 3 | -8 | 2.9 | .
CN(CCCC(=O)N1CCCC(C(N)=O)C1)S(=O)(=O)c1ccc(F)cc1 (stereo not given) | i | 3.7 | -7 | 0.5 | 1 | 1 | 4 | 9 | -3.6 | -4
CCOc1ccccc1NC(=O)CCN1CCN(S(=O)(=O)c2ccc(OC)cc2)CC1 | . | 2.3 | -5 | . | 7 | 0 | . | . | . | -2
CCc1ccc(NC(=O)C(=O)NCC2CCCN2S(=O)(=O)c2cccs2)cc1 (stereo not given) | i | 1.1 | -9 | 0.7 | 3 | -2 | -27 | -26 | -6.3 | 18
CC(C)CCNC(=O)C1CCCN(S(=O)(=O)c2ccc3c(c2)CC(C)N3C(=O)C2CC2)C1 (stereo not given) | i | 2.0 | -15 | -0.1 | 17 | . | -9 | -13 | -0.8 | -10
COc1ccccc1N(CC(=O)NCc1ccc(F)cc1)C(=O)CCC(=O)Nc1ccccn1 | i | 4.0 | -16 | -5.7 | 15 | . | 0 | -9 | -1.9 | 21
CC(C#N)Sc1ccc(S(=O)(=O)N(C)C2CCCCC2)cn1 (stereo not given) | i | . | -2 | -7.7 | . | 2 | -35 | -40 | -7.7 | .
Cc1csc(NC(=O)C2COc3ccccc3O2)n1 (stereo not given) | . | -0.1 | -4 | . | -1 | 5 | . | . | . | 1
CCOc1ccccc1N1CCN(C(=O)COc2ccc3c(C)cc(=O)oc3c2)CC1 | i | 2.9 | 6 | -0.3 | 24 | 1 | -9 | -7 | 3.1 | 12
CCN1CCc2nc(NC(=O)CC(c3ccccc3)c3ccccc3)sc2C1 | . | 31* | 1 | . | 11 | 0 | . | . | . | -4
COc1ccc2c(c1)C(=O)Nc1cc(Cl)ccc1N2 | i | 1.3 | 88* | 4.8 | 6 | -11 | . | . | . | 8
CCOC(=O)c1cc(C)sc1NC(=O)CN1CCN(C(=O)C2CCCO2)CC1 (stereo not given) | i | -0.9 | 96* | 1.4 | 6 | . | -3 | -4 | -3.8 | -6
CCOC(=O)N1CCN(C(=O)CSc2ccc(-c3ccc(OC)cc3)nn2)CC1 | i | 1.4 | -5 | 0.5 | -8 | . | -5 | -12 | 2.4 | -11
COCCN1C(=O)N[C@@H](CCc2ccccc2)C(C(C)=O)=C1C | . | -1.5 | -1 | . | -19 | -3 | . | . | . | -6
Cc1ccc2nc(NS(C)(=O)=O)sc2c1 | i | 2.7 | . | -3.3 | -16 | 0 | 6 | 4 | 3.4 | 0
CC(C)COC(=O)C1[C@H]2C(=O)N(Cc3cccs3)C[C@]23C=C[C@H]1O3 (stereo not given in full) | . | -1.9 | 2 | . | 5 | -3 | . | . | . | -2
Cc1ccc(CCNC(=O)Cn2cccc2)cc1 | . | ? | 0 | . | 6 | -2 | . | . | . | 0
CCOCCC(=O)Nc1cc(Cl)ccc1OC | . | 4.2 | -3 | . | -17 | 0 | . | . | . | 1
O=C(CCCc1ccccc1)NCc1ccccc1Cl | i | 1.0 | -1 | 1.7 | 4 | -5 | -5 | 0 | -0.1 | -2
CCN(CC)S(=O)(=O)c1cc(C(=O)O)ccc1OC | i | -0.6 | -1 | -29 | -6 | -5 | 2 | 8 | 3.9 | -10
CC(C)(C)c1ccc(-c2noc(CCC(=O)NCc3ccco3)n2)cc1 | i | 1.9 | . | -2.9 | -11 | -11 | -24* | -2.9* | -2.0* | 11
O=[N+]([O-])c1cc2cccnc2c2ncccc12 | i | 7.7 | -11 | -1.5 | 24 | 2 | . | . | . | 12
CCOc1ccc(C(C)=O)cc1COc1ccc(C)nc1[N+](=O)[O-] | i | 4.2 | . | 0.5 | 16 | 2 | 1 | 0 | -3.2 | -3
CC(=O)Nc1ccc(SCC(=O)Nc2ccccc2-c2ccccc2)cc1 | i | 2.9 | 98* | -1.1 | -12 | 4 | -22 | -28 | -18 | -20
Cc1c(C(=O)N(C)c2cccc(Cl)c2)cnn1-c1ccccc1 | i | 1.9 | 31 | -0.3 | -2 | 4 | 4 | 0 | -1.5 | -17
N#Cc1cc2c(nc1SCc1ccc(Cl)cc1)CCCC2 | i | -1.7 | 3 | -4.4 | 39 | 7 | -10 | 1 | 5.2 | -4
O=C(NN1C(=O)C2C3C=CC(C4CC34)C2C1=O)c1ccc(Cl)cc1Cl (stereo not given) | . | -0.1 | . | . | -5 | 1 | . | . | . | 24
c1ccc(-c2nnc(C(c3ccccc3)c3ccccc3)o2)cc1 | i | -1.2 | 12 | 0.8 | 45 | -3 | . | . | . | 9
O=C(O)CN1C(=O)/C(=C\c2cc(Br)ccc2OCc2ccc([N+](=O)[O-])cc2)SC1=S | . | -4.0 | 83* | -8.5 | -1 | -3 | -7 | 0 | -0.8 | 14
O=C(CCC(=O)c1cccs1)NC(c1ccccc1)c1ccccc1 | . | 2.2 | 0 | . | 13 | -17 | . | . | . | -20
CCN(C[C@H]1N[C@@](C)(C(=O)OC)[C@H]2C(=O)N(C)C(=O)[C@@H]12)C(=O)Nc1ccc(OC)cc1 | i | . | . | -0.4 | . | 0 | 6 | 21 | 0.3 | .
CCOc1ccccc1-c1cc(C(=O)N/N=C(\C)c2cccnc2)c2ccccc2n1 | i | 2.9 | 62 | 0.1 | 20 | 2 | 0 | -2 | -1.1 | -11
COc1cc(S(N)(=O)=O)c(OC)cc1N | i | -2.6 | . | -2.3 | -12 | 0 | 6 | 16 | -0.1 | 1
Clc1cccc(Cl)c1OCCCCN1CCCCC1 | i | -1.0 | -4 | -15 | 18 | . | 12 | 10 | 1.0 | -18
C=CC(O)Cc1c(C)n[nH]c1C (stereo not given) | i | 6.8 | -1 | -1.0 | -17 | -3 | 15 | 12 | -5.6 | 10
CCOC(=O)N1CCN(C(=S)NCCOC)CC1 | . | 2.2 | -12 | . | -2 | -1 | . | . | . | -6
O=C(NN1C(=O)/C(=C/c2cccs2)SC1=S)c1ccccc1 | . | 2.8 | -1 | . | 2 | 0 | . | . | . | -3
O=C(CSc1ccccc1)NCCCN1CCOCC1 | . | 2.1 | -1 | . | 0 | -10 | . | . | . | -19
Oc1[nH]c2ccccc2c1C1=NCCCCC1 | i | -2.4 | 93* | 3.7 | -5 | -1 | 9 | -4 | -2.2 | 38
COCCn1c(=O)[nH]c2cc(C(=O)NCc3cccnc3)ccc2c1=O | . | -2.7 | -1 | . | -13 | -8 | . | . | . | -5

From PubChem BioAssay
